# Compound activity as filed in PubChem.
# CSC inhib = cancer stem cell viability inhibitors, primary screen, luminescence; inhibition, % at 7.5 µM; cancer stem cell-like cells viability; actives 1.1% (n = 300,000); AID 2717, 2010;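 active = mean at 75% or more and at least half the replicates too; inconclusive = mean and replicates disagree; tested in HMLE shEcad cells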;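 also: 0% = median of negative and 100% = median of positive control wells; the first replicate is given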
# HIV Env fusion = inhibitors of HIV-1 Env-driven cell-cell fusion, primary screen, HeLa-JRFL effector, CEM21 target cells, luciferase. inhibition, % at 12.3 µM. actives 1.1% (n = 360,000). AID 651610, 2012;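 active = mean replicate inhibition score of at least 50 and every replicate individually at or above 50; inconclusive = only one of the two criteria met; inactive = mean below 50 and not all replicates reaching 50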;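 also: 0% = plate neutral controls and 100% = maraviroc near 300 nM; one replicate is shown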
# MT1-MMP act inh = blockers of MT1-MMP proenzyme processing, primary screen, HT1080 RFP-PRO-GFP cells, GFP/RFP fluorescence | actives 0.061% (n = 360,000) | GFP/RFP ratio fluorescence, overnight; percent of plate control window, DMSO zero | GFP/RFP ratio change, % at 20 µM | Matrix metalloproteinase-14 (Homo sapiens), P50281;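 active = GFP/RFP ratio change of at least 30% with cell ATP level not reduced by more than half and red fluorescence within 50% of control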; also: strong numbers were not always called active
#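 system = RFP-PRO-GFP reporter HT1080 cells | dosing = 20 µM single dose, 1% DMSO | timing = overnight cell settling, then overnight compound exposure, 37 °C, 5% CO2 | read-out basis = GFP/RFP fluorescence ratio | controls = DMSO and RFP-L50D-GFP cell wells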
# PABP FP inh = PABP poly(A) RNA binding inhibitors, primary screen, biochemical, fluorescence polarization, uHTS. Polyadenylate-binding protein 1 (Homo sapiens), P11940. inhibition, % at 35 µM. actives 1% (n = 290,000). AID 2014, 2009;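 active = 50% or more with normal probe brightness, or confirmed in later tests; inconclusive = above 50% with abnormal brightness, or retests that disagree; inactive = below 50% or failed in later tests; about a fifth of its hits are not listed in these tables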;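 also: calls also rest on retests at 20 µM and on dose response follow-up; controls were probe without protein and protein plus probe with vehicle; some compounds called inactive have numbers as strong as hits; many hits fall short of the cut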
# eIF4H inh = human eIF4H binding inhibitors, primary screen, translation initiation inhibitor project, biochemical, uHTS, fluorescence polarization; Eukaryotic translation initiation factor 4H (Homo sapiens), Q15056; eIF4H fluorescence polarization binding assay; inhibition, % at 35 µM; actives 0.94% (n = 290,000); AID 2012, 2009;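 active = 50% or more with normal probe brightness, or confirmed in later tests; inconclusive = above 50% with abnormal brightness, or retests that disagree; inactive = below 50% or failed in later tests; about a fifth of its hits are not listed in these tables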;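 also: calls also rest on retests at 20 µM and on dose response follow-up; 0% = protein and probe with vehicle and 100% = probe without protein; strong numbers were not always called active; many hits fall short of the cut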
# Rce1 inhib = yeast Rce1p protease inhibitors, primary screen, biochemical, fluorescence, cell-free homogeneous. yeast membranes, quenched prenylated peptide cleavage fluorescence. actives 0.27% (n = 290,000). CAAX prenyl protease 2 (Saccharomyces cerevisiae (strain ATCC 204508 / S288c)), Q03530. calls only;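 active = fall in fluorescence gain of 50% or more versus controls, with final raw signal at or below 3038400; inconclusive = same 50% fall but final raw signal above 3038400; inactive = fall in fluorescence gain under 50%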;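 also: plate controls were neutral control wells for no effect and wells lacking membranes for full effect; tested at 10 µM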
# Target sequence (Q03530 whole entry, looked up): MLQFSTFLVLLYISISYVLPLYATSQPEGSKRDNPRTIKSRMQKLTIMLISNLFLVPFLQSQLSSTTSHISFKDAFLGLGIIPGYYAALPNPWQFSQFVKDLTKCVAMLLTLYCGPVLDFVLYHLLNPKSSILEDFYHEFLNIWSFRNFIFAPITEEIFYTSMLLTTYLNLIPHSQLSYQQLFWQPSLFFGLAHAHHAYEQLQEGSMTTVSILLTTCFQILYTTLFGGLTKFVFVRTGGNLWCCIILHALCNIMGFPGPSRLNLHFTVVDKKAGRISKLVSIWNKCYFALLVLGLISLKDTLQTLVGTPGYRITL
# Yeast UUG start = modulators of yeast start codon fidelity, primary screen, whole organism, S. cerevisiae, single point, plate reader | actives 0.13% (n = 350,000) | activity score, % at 18.7 µM | S. cerevisiae UUG-firefly luciferase reporter, luminescence/redox ratio;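 active = replicate mean at a twofold rise or more, about +100% in these data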;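 also: firefly luciferase made from a UUG start codon reports start codon fidelity; reporter light over untreated wells divided by growth signal over untreated wells; some hits fall short of that in this replicate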
# eIF4H inh retest = further read-out of eIF4H inh, marked with its call; inhibition, %; compound at 20 µM; confirmation average;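 mean of two retest wells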
# PABP FP inh retest = second read-out of PABP FP inh, no call of its own (marks repeat the call); inhibition, %; compound at 20 µM; confirmation repeats;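 mean of two retest wells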
# MT1-MMP act inh RFP = also measured in MT1-MMP act inh; calls as there; RFP signal change, %; measured here: RFP expression control read;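 0 = vehicle wells; hits needed this value within 50% of zero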
# Starred values were filed as active, the others as inactive; i = inactive; ? = inconclusive; . = not tested or not shown; & = joins results of further samples.
SMILES,CSC inhib,HIV Env fusion,MT1-MMP act inh,MT1-MMP act inh RFP,PABP FP inh,eIF4H inh,Rce1 inhib,Yeast UUG start,others
CSc1ccccc1OCc1cc(C(=O)N2CCC(c3ccncc3)CC2)no1,14.2,3.6,9.7,-29.8,-8.1,-2.0,.,-15.2,
CCc1cccc2c(C(=O)CSc3nnc(-c4ccoc4C)n3C)c[nH]c12,6.3,-12.1,-2.8,-3.6,-6.9,-3.8,i,-16.2,
CN1CCN(C(=O)c2cccc(-c3cccc4nccn34)c2)CC1,.,-5.3,0.9,10.5,.,.,.,-14.7,
COc1ccc(NC(=O)c2cncn2-c2ccccc2)cc1,-11.2,-4.6,-0.3,-0.3,3.4,-1.9,i,.,
CCCNC(=O)NCCc1ccncc1,1.2,3.7,-4.1,-8.2,13.0,-0.8,i,-13.3,
CCN(CC)C(=O)N1CCn2c(nc3ccccc32)C1,10.6,.,-2.5,-1.2,14.4,11.0,i,-20.9,
Cc1cc(-c2nnc(-c3cccc(Cl)c3)o2)no1,-0.9,-22.6,0.6,1.7,0.6,-8.6,i,-15.8,
C=CCNC(=O)CSc1nnc(-c2ccccn2)n1Cc1ccccc1,.,-4.2,-1.4,1.0,52.5*,?,i,-12.4,PABP FP inh retest=95.5*
COc1ccccc1OC(C)C(=O)N1CCN(Cc2ccc3c(c2)OCO3)CC1 (stereo not given),-7.3,4.2,-0.4,-0.9,23.9,-2.8,.,-19.2,
CN(C)c1ccnc2sc3c(SCc4ccc(Cl)cc4)ncnc3c12,26.1,8.9,0.3,-4.2,5.4,4.3,i,.,
CCC/C=C/c1ccc(CN2C(C(C)C)C(=O)N(Cc3cn(CCOCOC)nn3)CCS2(=O)=O)cc1 (stereo not given),.,-6.8,5.4,1.8,.,.,.,-0.8,
CCC(Sc1ncccc1C(=O)OC(C)C)C(=O)N1CCOCC1 (stereo not given),-18.7,-33.3,5.6,3.2,-5.4,-5.6,i,-1.3,
COc1cccc(C2CC(c3cccs3)=NN2S(C)(=O)=O)c1 (stereo not given),0.2,-62.5,-5.2,0.6,-3.3,-3.9,i,.,
O=C(NC(=S)NCCO)c1sc2ccccc2c1Cl,1.1,-28.5,-1.7,0.4,?,1.1,i,-11.6,
Cc1cccc(NC(=O)CCN2C(=O)C3C4C=CC(C4)C3C2=O)c1 (stereo not given),-10.5,.,1.3,1.1,-2.7,6.9,i,-21.4,
CC(C)[C@H](NC(=O)OCc1ccccc1)C(=O)OCC(=O)NCCc1ccccc1,-2.7,5.7,-0.7,-2.9,-1.5,0.5,i,11.8,
CC(C)c1ccc(CN2C(=O)NC3(CCCCCC3)C2=O)cc1,3.2,9.5,-0.5,-4.1,22.8,1.3,i,-27.8,
CNC(=S)NC1CC2CCCC(C1)N2Cc1ccccc1OC (stereo not given),-36.4,-2.4,1.8,5.6,-1.7,2.4,i,-3.8,
COc1ccc2c(c1)C1OCCC1C(c1ccco1)N2 (stereo not given),20.4,.,-0.8,-1.5,.,.,?,-40.2,
O=C(CSc1nccn1-c1ccccc1)NO,-13.9,-10.2,0.5,1.5,-8.6,-1.7,i,.,
COc1ccc(COC(=O)C2=C(C)NC(=O)NC2c2ccccc2F)cc1 (stereo not given),-20.6,2.8,-0.9,-10.4,-0.3,3.1,i,1.0,
CCOC(=O)C1CCN(c2cc(=O)n(Cc3ccc(F)cc3)c(=O)[nH]2)CC1,-7.2,-12.6,2.9,2.6,12.7,7.6,i,-2.0,
N#Cc1cccc(NC(=O)c2cc(C3CCCCN3C(=O)c3cccs3)on2)c1 (stereo not given),.,-466.4,-3.3,-5.6,.,.,.,-5.1,
O=C(Nc1nnc(-c2cccs2)o1)C1CC1,-10.7,-1.4,1.4,4.0,-1.8,-7.6,i,-28.7,
Cc1onc(-c2ccc(Cl)cc2Cl)c1-c1csc(N/N=C/c2ccccc2Cl)n1,45.4,18.3,-13.5,-13.6,-12.9,-14.3,i,.,
O=C(Nc1nnc(SCc2ccc(F)cc2)s1)C1CC(=O)N(c2ccc3c(c2)OCCO3)C1 (stereo not given),-14.9,17.1,2.2,1.0,4.7,1.5,i,-11.2,
Cc1ccc(N2C(=O)CC(Sc3ncn[nH]3)C2=O)cc1C (stereo not given),-14.6,.,1.5,6.0,-1.0,1.1,i,-6.3,
Cc1ccc(CNC(=O)CSc2nc(C)cs2)cc1,-18.1,-6.2,-0.8,-1.0,-7.8,-3.3,i,.,
CC(C)N1CCN(c2ccc(S(=O)(=O)N3CCOCC3)cn2)CC1,-9.5,2.7,-5.0,3.4,2.1,-15.6,i,-5.8,
COc1ccc(C(=O)NNC(=O)c2snnc2C)cc1,-8.6,-6.9,0.0,0.9,10.0,4.5,i,-7.4,
O=C(CCl)Nc1cccc(Oc2ccccc2)c1,-8.0,2.6,-5.1,-3.9,-2.1,-3.5,i,-47.5,
COc1ccc(-c2cc(NC=O)c3ncc(-c4cccc(OC)c4)n3c2)cc1,.,-60.3,-12.7,-7.0,.,.,.,-13.6,
COc1ccc(NC(=O)COC(=O)CO/N=C(\C)c2ccc3c(c2)OCO3)cc1S(N)(=O)=O,-14.9,-13.7,-3.2,3.6,.,.,.,0.0,
NC1=NC(=O)/C(=C/c2cccc(F)c2)S1,-10.0,12.8,-7.6,-5.1,35.5,-13.0,i,-10.9,
CC1(/[N+]([O-])=C/c2ccc(Cl)cc2Cl)CCCCC1=O (stereo not given),-8.9,16.6,2.2,0.7,0.6,-13.3,i,-13.4,
CCCN(Cc1nnc(-c2ccccc2Cl)o1)C(=O)c1cc(S(=O)(=O)N2CCOCC2)ccc1F,-12.6,.,-7.9,-5.2,.,.,i,-7.1,
CCOc1ccc2nc(NC(=O)CSc3nc(-c4ccccc4)c(C#N)c(=O)[nH]3)sc2c1,.,-2.4,-2.4,1.7,4.3,4.1,i,.,
NC(=O)c1ccc(NC(=O)CSC2=Nc3ccccc3C3CC=NN23)cc1 (stereo not given),-12.7,.,-4.2,-6.3,-1.0,-15.6,i,2.9,
CCN(CC)CCCNc1nc(SC)nc2sc3c(c12)CCN(C)C3,-23.6,.,.,.,15.7,-6.0,i,.,
c1ccc2c(c1)N1CCCN=C1N2CCN1CCCCC1,-7.8,-8.0,-4.9,1.5,45.8,8.5,i,.,
CC(C)CNc1cc(N2CCCC2)ccc1[N+](=O)[O-],-0.4,.,6.5,-2.6,7.2,-3.8,i,-10.3,
Cc1cccc(-c2nc(=S)c3c(o2)CCCC3)c1,-11.8,-275.2,3.6,2.3,9.9,-6.8,i,-23.0,
COc1ccc(NC(=S)N2CCC(NC(=O)c3ccc(OC)cc3)CC2)cc1,14.3,-8.8,2.3,-1.2,1.9,0.4,i,-46.0,
O=C(CCS(=O)(=O)c1cccc2nsnc12)NC1CCCCCC1,-5.0,-7.0,0.2,-2.1,8.1,1.2,i,-19.2,
O=C(NCc1ccccc1)c1cc(C2COCCN2C(=O)c2ccc3c(c2)CCO3)on1 (stereo not given),.,-1.4,2.0,6.8,.,.,.,7.1,

# Quoted at random: two records from the list, in no set order.
SMILES,CSC inhib,HIV Env fusion,MT1-MMP act inh,MT1-MMP act inh RFP,PABP FP inh,eIF4H inh,Rce1 inhib,Yeast UUG start,others
CCC(Sc1ncccc1C(=O)OC(C)C)C(=O)N1CCOCC1 (stereo not given),-18.7,-33.3,5.6,3.2,-5.4,-5.6,i,-1.3,
O=C(CSc1nccn1-c1ccccc1)NO,-13.9,-10.2,0.5,1.5,-8.6,-1.7,i,.,

# The list goes on.
SMILES,CSC inhib,HIV Env fusion,MT1-MMP act inh,MT1-MMP act inh RFP,PABP FP inh,eIF4H inh,Rce1 inhib,Yeast UUG start,others
Cc1cccc(NS(=O)(=O)c2nnc(NC(=O)CC(C)C)s2)c1,-0.6,7.0,4.3,-0.6,-3.6,-4.6,i,-16.3,
Cc1scc(C(=O)N/N=C/c2ccc(OC(C)C)cc2)c1C,-1.3,.,14.9,13.8,-0.6,-0.2,i,-9.8,
Cc1cc(C)c(S(=O)(=O)n2cnc3ccccc32)c(C)c1,-17.5,.,2.0,4.9,5.5,5.2,i,-11.1,
CNC(=O)c1cc2cc(Cc3ccccc3Cl)ccc2oc1=O,13.0,12.9,0.1,-1.2,-3.2,-3.2,i,-10.2,
COC(=O)c1c(-c2ccc(SC)cc2)sc2ccccc12,-13.0,-33.1,-0.2,1.3,.,.,.,-12.5,
Cc1c(Cl)cccc1NC(=O)Cc1ccc([N+](=O)[O-])cc1,3.7,-2.6,5.6,4.7,74.9,16.6,i,-18.9,eIF4H inh retest=-7.3;PABP FP inh retest=1.8
CC(C)CN(CC(C)C)c1nnc(NC(=O)Cn2c(=O)oc3ccccc32)s1,27.2,12.7,5.3,-1.7,-3.9,2.3,i,-21.4,
O=C(/C=C/c1cn(-c2ccccc2)nc1-c1cccc(Cl)c1)N1CCN(c2ccccn2)CC1,21.3,21.3,-13.1,-12.6,-6.8,-1.8,i,.,
O=C1CS(=O)(=O)c2ccccc2N1,-19.9,-16.1,5.3,5.3,9.0,-14.3,i,-2.6,
O=C(NCc1cccc(Cl)c1)C1CCC(=O)N(CCCN2CCCC2=O)C1 (stereo not given),6.6,5.3,-2.1,-0.8,2.0,-3.8,i,3.4,
O=C(CSc1ccc2nnc(-c3ccccn3)n2n1)NCc1ccc2c(c1)OCO2,-10.9,-52.7,-0.5,4.5,-5.4,-3.6,i,-19.2,
O=C(COc1ccccc1)Nc1ccc(Cl)cn1,0.4,-24.4,-2.4,-0.4,1.8,-1.4,i,-18.1,
C[C@@H]1CN([C@H](C)CO)C(=O)CCCn2nncc2CO[C@H]1CN(C)C,.,-54.1,1.3,4.1,.,.,.,-1.4&7.2,
CN(C)CCCNC(=O)c1cc(C(=O)c2ccccc2F)c[nH]1,9.6,23.2,-0.7,0.1,12.6,-2.9,i,-7.8,
CCOC(=O)n1c(=O)n(Cc2ccc(Cl)cc2Cl)c2ccccc21,.,.,7.5,-3.2,-0.8,-6.4,i,.,
Cc1c(N=C2NN=C(c3ccc(Cl)cc3)CS2)c(=O)n(-c2ccccc2)n1C,-10.4,26.3,-2.9,-5.5,2.3,-9.5,i,5.4,
Cc1cc(C)c2ccc(=O)n(CC(=O)N/N=C/c3ccccc3Cl)c2n1,-6.7,9.2,-1.1,-3.2,0.8,-5.2,i,-4.0,
O=S(=O)(Cc1cc(Cl)nc(-c2ccccc2)n1)c1ccccc1,-12.1,-14.4,9.6,3.6,-9.9,-7.7,i,.,
O=c1[nH]c2cc(Cl)c(Cl)cc2o1,.,-44.5,-0.5,2.2,.,.,.,-23.1,
CN(C)C(=O)C1Cc2ccccc2CN1S(=O)(=O)c1cccs1 (stereo not given),5.2,9.4,-2.1,3.0,-0.4,15.4,i,.,
CC(=O)c1c(C)[nH]c(C(=O)OCC(=O)Nc2sc3c(c2C#N)CCC(C)C3)c1C (stereo not given),9.2,0.4,0.6,-17.3,4.1,15.3,i,-9.9,
O=C(NCc1cccnc1)C1COc2ccccc2O1 (stereo not given),.,.,-0.2,0.4,-2.6,-11.0,i,-9.9,

# These rows are one share of the data (hit frequency here may not be typical).
